High-throughput results (PubChem)
RVFV N-RNA inh: inhibitors of Rift Valley Fever Virus nucleocapsid-RNA interaction. 0.1% of 20,000 active. % bound, % (no concentration beside the values). RVFV N-RNA binding, fluorescence polarization; active compounds read low. AID 651828;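 active means between 0 and 58% in either replicate with normal brightness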;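 further: 100 nL library stock added to about 12 µL; 100% = protein and probe without compound and 0% = probe alone; numbers are from one replicate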
Target sequence (P21700 whole entry, looked up): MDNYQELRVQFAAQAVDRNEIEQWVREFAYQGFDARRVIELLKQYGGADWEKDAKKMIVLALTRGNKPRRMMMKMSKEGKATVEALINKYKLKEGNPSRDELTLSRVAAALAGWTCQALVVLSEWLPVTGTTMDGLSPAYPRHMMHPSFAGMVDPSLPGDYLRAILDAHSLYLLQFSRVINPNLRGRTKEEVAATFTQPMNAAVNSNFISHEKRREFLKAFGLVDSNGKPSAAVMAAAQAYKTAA
* = called active by the depositor; & = joins results of further samples. Only part of the results is shown; count on the stated rates, not on these rows.

SMILES | RVFV N-RNA inh
CCOC(=O)c1c(N/C=C(\C#N)c2nc(-c3cccs3)cs2)sc2c1CCC2 | 94
C[C@]12C[C@H](O)[C@H]3[C@@H](CCC4=CC(=O)CC[C@@]43C)[C@@H]1CC[C@@H]2C(=O)CO | 108&101&100
CC(C)C(=O)NN=C1CCC(=NNC(=O)C(C)C)CC1 | 98
O=P(O)(c1ccccc1)c1ccccc1 | 92
Cc1ccccc1CN(CCO)Cc1ccccc1 | 85
CC(=O)Nc1cccc(OCCCNS(=O)(=O)c2cn(C)c(C)n2)c1 | 101
NC(=O)C1CCN(C(=O)CN2CCC(Cc3ccccc3)CC2)CC1 | 89
O=c1c2cnn(-c3cccc(Cl)c3)c2ncn1CCC1OCCO1 | 94
CN1CCN(C(=O)c2ccccc2NC(=O)COc2ccc(Cl)cc2)CC1 | 110
CCOC(=O)COc1ccc(C=C2C(=O)NC(=O)NC2=O)cc1Br | 93
CP(=O)(O)CN1CCN(CP(C)(=O)O)CC1 | 93
CN(C)CCN(Cc1ccccc1)Cc1c(F)cccc1Cl | 99
CCOC(=O)NC(=S)Nc1ccc(F)cc1F | 90
COc1ccc(CC(=O)Oc2ccc(F)cc2)cc1 | 99
CC(C)NC(=O)C(C)Oc1ccc(S(N)(=O)=O)cc1 (stereo not drawn) | 96

Reformatted as tab-separated lines: entries from further up
mol	RVFV N-RNA inh
O=P(O)(c1ccccc1)c1ccccc1	92
CCOC(=O)COc1ccc(C=C2C(=O)NC(=O)NC2=O)cc1Br	93
NC(=O)C1CCN(C(=O)CN2CCC(Cc3ccccc3)CC2)CC1	89
CP(=O)(O)CN1CCN(CP(C)(=O)O)CC1	93

(next part)
SMILES | RVFV N-RNA inh
CC[C@H]1OC(=O)[C@H](C)[C@@H](O[C@H]2C[C@@](C)(OC)[C@@H](O)[C@H](C)O2)[C@H](C)[C@@H](O[C@@H]2O[C@H](C)C[C@H](N(C)C)[C@H]2O)[C@](C)(O)C[C@@H](C)C(=O)[C@H](C)[C@@H](O)[C@]1(C)O | 103
COc1ccc(-c2cc(=O)oc3c(C)c(O)c(CN4CCCC(C)C4)cc23)cc1 (stereo not drawn) | 93
CN(c1ccccc1C(N)=O)S(=O)(=O)c1ccccc1 | 98
CCOC(=O)Cn1c(=NC(=O)c2ccc(N3C(=O)CCC3=O)cc2)sc2cc(S(N)(=O)=O)ccc21 | 95
Cc1nccc(-c2cccc(N/N=C(\C#N)S(=O)(=O)c3ccccn3)c2)n1 | 95
CN1C(=O)N(C)C2CC1N(C)C(=O)N2C | 95
CCC(CC)NC(=O)c1cccc(OC)c1OC | 109
CNC(=S)Nc1cccc(C(=O)OC)c1 | 98
CCOc1ccc2c(c1)s/c(=N/C(=O)Nc1ccc(OC)cc1)n2C | 100
O=C(Cn1cnc2c(nnn2Cc2ccccc2)c1=O)c1ccccc1 | 92
CN(C)c1nc(SCC(N)=O)nc(N(C)C)n1 | 99
O=C(Nc1nnc(-c2ccc(Cl)cc2)o1)C1CC1 | 86
Cc1nc2ccccn2c(=O)c1NC(=O)C(C)C | 92
CC(=O)Oc1ccc(-c2nc(-c3ccccc3)no2)cc1 | 98
OC[C@H]1O[C@@H](n2cnc3c(NC4CCCC4)ncnc32)C(O)[C@H]1O (stereo partly drawn) | 98
Cc1cccc(C)c1N=C(NO)c1nonc1N | 98
CN1C(=O)CC(c2ccco2)Sc2ccccc21 (stereo not drawn) | 95
CC1S/C(=N\N=C/C23CC4CC(CC(C4)C2)C3)NC1=O (stereo not drawn) | 100
Cn1cnnc1SCC(=O)Nc1ccccc1 | 100
CC(=O)Nc1c(C(=O)N2CCOCC2)sc2nc3c(cc12)COC(C)(C)C3 | 111
CN(C)c1c(F)cc(C(=O)NCc2ccccc2)cc1F | 101
CCN1CCN(Cc2ccoc2)CC1 | 98
O=C1CN=C(c2ccccc2)c2cc([N+](=O)[O-])ccc2N1 | 92
CCOC(=O)c1c(C)c(C(=O)N2CC(C)CC(C)C2)c(C)n1C (stereo not drawn) | 98
CN1CCCC1CCOC(C)(c1ccccc1)c1ccc(Cl)cc1 (stereo not drawn) | 97
O=C(Nc1cccc(-c2noc(-c3ccccc3)n2)c1)c1cccs1 | 100
CC(=O)NS(=O)(=O)c1ccc(NC(=O)c2ccccc2C(=O)O)cc1 | 94
Nc1nc2[nH]cc(CCc3ccc(C(=O)N[C@@H](CCC(=O)O)C(=O)O)cc3)c2c(=O)[nH]1 | 96
COc1cc(/C=C/C(N)=O)cc(OC)c1OC | 98
C[C@H]1CC2C3CCC4=CC(=O)C=C[C@]4(C)[C@@]3(Cl)[C@@H](O)C[C@]2(C)[C@@]1(O)C(=O)CO (stereo partly drawn) | 100

Laid out differently: entries from further up
CN(C)c1c(F)cc(C(=O)NCc2ccccc2)cc1F
  RVFV N-RNA inh: 101

CCN1CCN(Cc2ccoc2)CC1
  RVFV N-RNA inh: 98

O=C1CN=C(c2ccccc2)c2cc([N+](=O)[O-])ccc2N1
  RVFV N-RNA inh: 92

Going on with the list.
SMILES | RVFV N-RNA inh
Cn1cc(Br)c(=O)n(C)c1=O | 88
CC(=O)O/N=C(/N)c1cnn2c(C(F)(F)F)cc(C(F)(F)F)nc12 | 94
CCN(CC)CCC1S(=O)(=O)C(C(=O)OC)C(c2ccc(OC)cc2)C(C(=O)OC)S1(=O)=O (stereo not drawn) | 97
O=C(CSc1nc(=O)n2ccccc2n1)NCc1ccccc1 | 89
Cc1ccc(C(=O)Nc2ccc(C(=O)N3CCCCC3)cc2)o1 | 106
O=C(NNc1ccccn1)Nc1ccc(Cl)cc1 | 101
O=C(Nn1c(=S)[nH]c2ccccc2c1=O)c1ccco1 | 93
CSc1ccc(-c2nnc(NC(=O)/C=C/c3cccs3)o2)cc1 | 94
Cn1c(N)c(C(=O)NCc2ccccc2)c2nc3ccccc3nc21 | 100
CN1CCN(c2ccccc2NC(=O)c2ccc(Br)o2)CC1 | 91
CC(=O)NC(=S)Nc1ccc(S(=O)(=O)N2CCOCC2)cc1 | 90
N#CCc1ccc(NC(=O)CC(CC(=O)O)c2ccccc2)cc1 (stereo not drawn) | 100
COC(=O)c1sccc1NNS(=O)(=O)c1ccccc1 | 97
CCCCOc1cccc2c1CCN(CC)C2=O | 97
Cc1nc(N=Nc2ccc(C(=O)O)cc2)c(COP(=O)(O)O)c(C=O)c1O | 94

3 entries from above, ordered by number of heavy atoms, smallest number first.
SMILES | RVFV N-RNA inh
CC(=O)Nc1cccc(OCCCNS(=O)(=O)c2cn(C)c(C)n2)c1 | 101
Cc1nccc(-c2cccc(N/N=C(\C#N)S(=O)(=O)c3ccccn3)c2)n1 | 95
C[C@H]1CC2C3CCC4=CC(=O)C=C[C@]4(C)[C@@]3(Cl)[C@@H](O)C[C@]2(C)[C@@]1(O)C(=O)CO (stereo partly drawn) | 100

Some of the entries above in another layout.
| canonical_smiles | RVFV N-RNA inh |
| --- | --- |
| CCC(CC)NC(=O)c1cccc(OC)c1OC | 109 |
| CNC(=S)Nc1cccc(C(=O)OC)c1 | 98 |
| CCOc1ccc2c(c1)s/c(=N/C(=O)Nc1ccc(OC)cc1)n2C | 100 |
| O=C(Cn1cnc2c(nnn2Cc2ccccc2)c1=O)c1ccccc1 | 92 |

Continued:
SMILES | RVFV N-RNA inh
O=C(CCCN1C(=O)c2ccccc2C1=O)Nc1ccc(S(=O)(=O)NC2CCCCC2)cc1 | 88
COc1ccccc1C(=O)N1CCCc2cc(C)ccc21 | 95
CCOC(=O)N1CCN(C(=S)Nc2ccc(Oc3ccccc3)cc2)CC1 | 92
Oc1c(N=Nc2ccc3c(c2)OCO3)sc2nc3ccccc3n12 | 91
O=C(CN1CCN(c2ccccc2)CC1)Nc1ccccc1 | 97
CC(C)(C#N)C(O)c1ccccc1 (stereo not drawn) | 101
CC(C)OC(=O)c1ccc(-n2cccn2)cc1 | 90
O=C1CC2(CCN(S(=O)(=O)c3ccccc3)CC2)Oc2ccccc21 | 90
CN1CCN(C(=O)CSc2nc3ccccc3nc2SCC(=O)N2CCN(C)CC2)CC1 | 86
Clc1ccc(OCc2noc(COc3ccc(Cl)cc3Cl)n2)c(Cl)c1 | 97
CCOc1ccc(C(=N/O)/C(C)=N/O)cc1 | 104
O=C(O)c1ncc(C(F)(F)F)cc1Cl | 92
COc1ccc(N2CCN(C(CNS(=O)(=O)c3c(C)cc(C)cc3C)c3ccco3)CC2)cc1 (stereo not drawn) | 97
